T cruzi inh: blocks replication of Trypanosoma cruzi. T. cruzi beta-gal in NIH3T3, luminescence, 90 h. inhibition, % (no concentration beside the values). 1.4% of 300,000 active;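 active means mean inhibition across valid replicates above about 55%, limit read from the data; inconclusive means mean below that limit but half or more replicates reach it; inactive means mean below it, under half of replicates reach it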;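 further: signal also drops with host cell toxicity which is not excluded here; 0% = plate median of DMSO wells and 100% = zero luminescence signal; higher percent means less beta-gal luminescence so fewer parasites; stock transfer was 50 nL into about 50 µL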
UCH37 inh: human UCH37 deubiquitinating enzyme inhibition | purified proteasome/UCH37, Ub-AMC cleavage fluorescence | inhibition, % (concentration not given with the values) | 0.33% of 330,000 active | Q9Y5K5;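 active means mean of two replicates above 20%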;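 further: 0% = compound-free wells with enzyme and 100% = wells lacking proteasome; stock transfer was 100 nL into about 20 µL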
Target sequence (Q9Y5K5 whole entry, looked up): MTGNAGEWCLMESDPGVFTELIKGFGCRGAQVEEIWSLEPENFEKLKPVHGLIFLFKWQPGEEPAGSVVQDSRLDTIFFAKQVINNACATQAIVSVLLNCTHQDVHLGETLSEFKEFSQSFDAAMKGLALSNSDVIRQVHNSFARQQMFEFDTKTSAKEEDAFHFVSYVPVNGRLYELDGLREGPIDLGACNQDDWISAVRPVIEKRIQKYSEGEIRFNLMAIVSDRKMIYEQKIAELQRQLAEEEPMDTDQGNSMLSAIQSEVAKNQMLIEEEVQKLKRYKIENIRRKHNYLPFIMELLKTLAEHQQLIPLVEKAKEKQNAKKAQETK
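System: Proteasome-associated human UCH37 deubiquitinase; Input: 0.15 nM proteasome in added enzyme buffer; Also added: Ub-AMC substrate from 1 µM stock; Incubation: 30 min compound-proteasome preincubation then 25 min substrate reaction, room temperature; Detection: fluorescence, ex 355 nm, em 460 nm; Read-out: % inhibition of Ub-AMC cleavage fluorescence; Benchmarks: no-proteasome and no-compound wells.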
B2AR ag: activates human beta-2 adrenergic receptor causing internalization; P07550; Am2.2-beta2AR cells, FAP receptor internalization, flow cytometry; reference of the scale not given here; response, % (test concentration not listed); 0.43% of 340,000 active;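 active means response above a set limit, near 3 SD of response in nonfluorescent compounds, cut at about 42% in these data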;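 further: stock transfer was 100 nL into about 11 µL; a reference agonist was the positive control; negative values mostly stem from fluorescent compounds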
Target sequence (P07550 whole entry, looked up): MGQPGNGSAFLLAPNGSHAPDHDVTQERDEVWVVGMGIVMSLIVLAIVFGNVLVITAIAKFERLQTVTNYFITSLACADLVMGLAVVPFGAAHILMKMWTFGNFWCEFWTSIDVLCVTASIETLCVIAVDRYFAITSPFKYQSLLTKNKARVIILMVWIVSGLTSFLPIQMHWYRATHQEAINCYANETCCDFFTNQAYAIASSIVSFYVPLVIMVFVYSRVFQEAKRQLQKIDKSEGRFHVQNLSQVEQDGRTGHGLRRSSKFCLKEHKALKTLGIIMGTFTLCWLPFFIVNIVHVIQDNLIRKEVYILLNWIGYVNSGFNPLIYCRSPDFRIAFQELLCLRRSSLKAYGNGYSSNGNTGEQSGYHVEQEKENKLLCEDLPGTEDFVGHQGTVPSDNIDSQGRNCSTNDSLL
LANA-H2B inh: blocks KSHV LANA binding to histone H2A/H2B. AID 2629. inhibition, % (no concentration beside the values). Q9QR71. 0.6% of 320,000 active. cell-free LANA-H2A/H2B peptide, fluorescence polarization; in the data active means inhibition mostly above about 10%, no sharp cut-off; inactive means mostly below about 6.7%;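 further: stock transfer was 7.5 nL into about 10 µL; 0% = median of vehicle wells and 100% = median of positive control wells; one replicate is shown; the record names a cut of 25% in any replicate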
RanGTP-Impb inh: disruptors of Ran-importin-beta complex formation – biochemical, FRET, CFP-Ran, YFP-importin-beta, homogeneous, primary screen. cell-free CFP-Ran/YFP-importin-beta FRET ratio. inhibition, % (no concentration beside the values). 1.1% of 300,000 active. AID 2216;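 active means most replicates above 15%; inconclusive means exactly half above 15%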;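 further: 0% = DMSO wells and 100% = Ran loaded with GDP instead of GTP; wells of about 40 µL received 100 nL stock; the first replicate is given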
Beta cell apopt: blocks beta cell apoptosis. protection from apoptosis, % (concentration not given with the values). 0.8% of 300,000 active. INS-1E cytokine-induced death, ATP luminescence, 48 h; percent of positive-control rescue, neutral wells zero;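 active means all replicates at 75% or more, or half of them and the mean; inconclusive means half reach 75% but not the mean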;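 further: 0% = cytokine-treated negative control wells and 100% = positive control rescue; higher means more ATP so stronger rescue from cytokine killing; wells of about 40 µL received 100 nL stock; the first replicate is given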
A1 inh: inhibitors of the anti-apoptotic protein A1, read as caspase activation | MEF A1-2A-BIM cells, Caspase-Glo 3/7 luminescence, 3 h; percent of clofoctol response, vehicle zero | caspase activation, % (no concentration beside the values) | 0.066% of 330,000 active | AID 2462;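 active means over half of replicate activation scores above 10%, or exactly half above 10 with the replicate mean above 10; inconclusive means replicate mean below 10 yet half the replicates above 10; inactive means over half of replicates below 10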;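 further: wells of about 30 µL received 50 nL stock; many hits fall short of the cut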
Calb FLC: affects C. albicans growth with fluconazole; 0.57% of 300,000 active; C. albicans CaCi-2 (fluconazole-resistant clinical isolate) + fluconazole, Alamar Blue growth, 48 h; growth inhibition, % (test concentration not listed);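 active means most replicates above 75%; inconclusive means exactly half above 75%; inactive means most below 75%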;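 further: all wells also contain fluconazole at 8 µg/ml as a sub-toxic cotreatment; 0% = median of DMSO wells and 100% = median of geldanamycin control wells; wells of about 8 µL received 7.5 nL stock; the first replicate is given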
Active calls of the source: *; ? = inconclusive; . = not tested or not shown; & = joins results of further samples.

structure	T cruzi inh	UCH37 inh	B2AR ag	LANA-H2B inh	RanGTP-Impb inh	Beta cell apopt	A1 inh	Calb FLC
CCOC(=O)N/N=C/c1cn(Cc2ccc(Cl)cc2)c2ccccc12	26.3	.	4.1	0.9	-7.6	-0.7	0.6	-24.5
O=C(N/N=C\c1ccc(OC(=O)c2cccs2)cc1)c1ccc(Cl)cc1	-2.2	.	7.2	-3.9	?	-7.4	1.0	-0.4
Clc1ccc(OCCCCCN2CCCC2)c(Br)c1	68.0*	2.2	1.1	0.3	3.6	1.6	-0.8	10.6
C=CCN1C(=O)N(c2ccc(F)cc2)C(=O)C1CC(=O)Nc1ccc(Cl)cc1 (stereo not given)	1.9	4.7	11.5	-3.2	0.2	5.6	0.0	12.7
COCc1cc(=O)[nH]c(SCCS(=O)(=O)c2ccc(Cl)cc2Cl)n1	-4.6	2.0	14.6	-3.6	-2.4	6.7	-0.1	-13.9
CN1CCN(CC(=O)N2CCn3c4c(c5cc(C6CCCCC6)ccc53)CCCC42)CC1 (stereo not given)	14.8	.	16.4	-0.5	.	18.5	-0.1	110.6*
CCOc1ccccc1N1CCN(C(=O)CCCN2C(=O)c3cccc4cccc(c34)C2=O)CC1	-2.4	-9.6	-1.3	1.9	2.1	11.8	0.4	6.1
COc1ccc(CNC(=O)/C=C/c2ccc(S(=O)(=O)N3CCOCC3)cc2)cc1	-17.1	1.1	0.6	-0.6	-0.8	-8.0	-0.6	-13.5
CC(=O)n1nc(-c2ccccc2)nc1NCc1cccs1	-9.2	5.1	-2.7	-2.5	-2.9	-4.7	0.0	3.0
Cc1nc2ccccc2nc1OCc1ccc([N+](=O)[O-])cc1	4.2	2.1	-0.3	-3.9	-2.4	6.9	-0.6	-9.2
COc1cccc(NC(=O)NC(=O)c2c(C)cc(Cl)nc2Cl)c1	-5.9	5.2	-3.2	8.6	2.4	1.9	0.0	3.2
O=C(COC(=O)c1cc(Cl)cc(Cl)c1)NCCN1C(=O)CSC1=O	-15.2	-1.7	-6.4	-4.4	-1.4	-11.7	0.3	-5.4
COc1ccc(N2CCN(C(=O)COC(=O)c3ccc(Cl)nc3)CC2)cc1	.	1.9	5.2	.	.	-3.0	0.0	.
Cc1ccc(C2CC(c3cccc(NS(C)(=O)=O)c3)=NN2S(C)(=O)=O)cc1 (stereo not given)	5.9	3.3	-5.0	-2.9	0.1	-3.9	0.3	7.0
CCOc1ccccc1NC(=O)C1CCN(c2ccc(S(=O)(=O)N3CCCC3)cc2)CC1	13.0	-0.7	-0.2	.	1.5	.	.	-13.1
O=C(O)c1ccc2oc(SCC(=O)N3CCCCC3)nc2c1	-7.9	0.4	-4.4	0.2	-3.0	-5.0	-1.8	-4.9
CC(C)(C)c1cc[n+](-c2[nH]c(=O)sc2/C=N/N=C(\[O-])c2ccccc2)cc1	-9.3	.	5.0	2.3	0.2	1.2	0.6	-5.9
CCCC(=O)n1nc(-c2ccccc2)nc1N	-2.4	0.8	-1.0	2.1	-4.2	.	2.1	16.1
COC(=O)c1ccc(C(=O)OC)c(-n2c(=O)c3ccccc3c3ccccc3c2=O)c1	-27.4	1.2	54.5*	-0.7	-4.2	0.2	-0.5	1.1
COc1ccc(-n2c(COc3ccc4ccccc4c3)nnc2SCC(=O)NCc2ccco2)cc1	20.1	5.4	0.1	-2.3	-0.4	6.1	-0.1	-4.7
CN(CC(=O)Nc1ccc(F)cc1)CC(=O)N(C)C1(C#N)CCCCC1	.	2.1	-3.0	-3.6	.	-4.5	-0.2	.
COC(=O)c1c(-c2ccc(S(C)(=O)=O)cc2)sc2cc(OC)ccc12	.	-60.8	6.3	-5.9	.	-1.9	-0.7	.
CSCCC(NC(=O)c1ccc([N+](=O)[O-])cc1Cl)C(=O)OCC(=O)N(C)C (stereo not given)	-0.5	4.3	5.2	-1.3	0.9	-4.4	1.0	15.8
CCOC(=O)Cc1csc(NC(=O)CSc2nc(=O)[nH]c3c2CCCC3)n1	-4.9	0.5	-2.7	6.7	-0.2	5.7	-0.5	-13.8
CC(C)(C)C(=O)C(Cl)C(=O)Nc1ccccc1 (stereo not given)	-9.7	4.3	10.0	0.7	-1.4	-10.8	0.6	-5.7

Next section:
structure	T cruzi inh	UCH37 inh	B2AR ag	LANA-H2B inh	RanGTP-Impb inh	Beta cell apopt	A1 inh	Calb FLC
Cc1c(CC(=O)N2CCN(C(=O)C3COc4ccccc4O3)CC2)c(=O)oc2cc(O)c(Cl)cc12 (stereo not given)	2.3	.	-7.9	-1.8	43.8*	2.0	0.6	2.2
CCOc1cc(C(=S)N2CCOCC2)ccc1OC(=O)c1ccccc1	9.8	0.1	6.0	1.9	1.9	-1.3	-0.8	-3.9
COc1ccc(CCCC(=O)NC2CCCCC2)cc1	3.2	2.3	7.7	1.7	-5.7	-4.5	-0.5	-6.7
COc1ccc(NC(=S)N2CCCC(c3nc4ccc(C)cc4[nH]3)C2)cc1 (stereo not given)	5.5	5.3	0.7	1.8	1.2	0.9	1.4	8.1
COc1cc(/C=C2/SC(=S)N(CC(=O)Nc3cccnc3)C2=O)cc(OC)c1OC	6.2	-14.4	20.1	0.2	-11.2	-7.0	0.1	-17.9
O=C(Cc1csc(-c2ccccc2)n1)Nc1ccc(C(F)(F)F)cc1	-9.2	4.2	8.7	-0.7	-1.1	0.9	0.0	-8.7
Cc1ccc(C(=O)COC(=O)c2cnccn2)cc1[N+](=O)[O-]	.	.	4.4	-0.3	.	-4.2	1.1	-5.2
Cc1nc2sc(-c3ccccc3)cc2c(=O)n1N	-9.2	-31.7	3.5	-0.9	-1.4	32.0	-8.3	0.0
S=C(Nc1ccc2c(c1)OCO2)N1CCCC1	2.3	2.7	1.5	1.3	4.8	2.6	-0.4	14.5
FC(F)(F)c1cccc(Oc2cc(C(F)(F)F)nc(-c3ccccn3)n2)c1	4.2	0.6	-5.2	2.8	2.3	1.1	-0.9	15.4
Cc1c(C(=O)NC2CCCCC2)oc2ccccc12	-14.2	2.4	-4.3	-1.8	6.1	-3.5	-0.4	-17.3
COc1ccccc1CNC(=O)CCC(=O)N1CC(C)Sc2ccccc21 (stereo not given)	22.7	2.9	-14.3	.	-0.7	.	.	5.9
O=C(CS(=O)(=O)Cc1ccccc1)Nc1nnc(C(F)(F)F)s1	2.7	0.0	2.2	2.4	1.3	-7.7	0.3	-13.2
COc1cc2ccccc2cc1C(=O)N1CCCC1	13.7	-5.6	-1.9	3.1	0.8	.	0.4	-2.2
O=C(O)C1CC(=O)N(Cc2ccccc2)C1 (stereo not given)	-9.6	2.9	0.2	-0.2	0.6	-4.0	0.8	-3.1
CCN(CC)CCN(C(=O)c1ccc(S(=O)(=O)N2CCCCC2)cc1)c1nc2cc3c(cc2s1)OCO3	62.8*	2.5	26.6	-1.1	2.9	-2.9	0.4	23.5
Cc1nc2ccccc2c(=O)n1NC(=O)/C=C/c1ccccc1Cl	-1.9	1.2	5.6	-5.2	1.0	-0.4	1.1	-4.1
COC(=O)c1ccc(NC(=O)CSc2nncn2-c2ccccn2)cc1	-6.0	3.6	-3.4	4.3	-1.3	-2.1	0.0	8.0
OCc1cn(-c2ccc(Cl)cc2)nn1	0.3	0.0	-1.1	-2.9	-0.1	-4.4	?	-3.0
O=C(Nc1nncs1)C1COc2ccccc2O1 (stereo not given)	-3.9	5.6	16.8	1.7	1.9	-2.9	-0.1	1.7
CN(C)S(=O)(=O)c1ccc(-c2csnn2)s1	-12.3	1.4	-18.0	5.5	-0.2	-0.6	0.5	5.6
O=C(OCCN1CCOCC1)c1cccnc1	-6.2&-6.8	1.4&1.4	2.0&-3.5	-4.3&-1.3	-2.0&-0.3	-7.1&-14.5	2.7&0.4	35.2&-7.0
O=C(O)c1cccc(N2C(=O)c3cccc(Oc4ccc(Cl)cc4)c3C2=O)c1	-4.4	4.2	-12.1	-0.4	0.3	4.4	1.1	-10.9
CN(C(=O)c1ccncc1)C1CCS(=O)(=O)C1 (stereo not given)	-14.1	0.5	-0.1	3.6	-0.3	7.5	0.2	-14.9
Cc1ccc(N(CC(O)Cn2c3ccccc3c3ccccc32)S(C)(=O)=O)cc1 (stereo not given)	11.0	2.1	15.5	-5.4	-0.8	-2.9	-0.2	28.4

Shown as a hit in RanGTP-Impb inh, of those listed so far:
compound	UCH37 inh	B2AR ag	LANA-H2B inh	RanGTP-Impb inh
Cc1c(CC(=O)N2CCN(C(=O)C3COc4ccccc4O3)CC2)c(=O)oc2cc(O)c(Cl)cc12 (stereo not given)	.	-7.9	-1.8	43.8*

Next compounds
structure	T cruzi inh	UCH37 inh	B2AR ag	LANA-H2B inh	RanGTP-Impb inh	Beta cell apopt	A1 inh	Calb FLC
COc1ccc(C(=O)Oc2ccc3ccc(=O)oc3c2)cc1	-10.8	-88.4	5.3	8.5	0.2	-8.3	0.1	-0.2
O=c1oc(-c2ccccc2)nc2ccsc12	-0.3	2.1	-2.4	-2.1	?	-6.2	-2.3	6.4
O=C(Nc1ccccc1)OCCCCCOC(=O)Nc1ccccc1	13.3	0.6	-4.1	-1.8	-1.9	5.0	-0.1	6.6
Cc1ccccc1NC(=O)Cc1nnc(SCC(=O)NC2CCCC2)n1C	-4.9	-0.1	10.2	-4.6	?	-0.2	0.0	-3.7
COc1ccc(NC2CCCN(C(=O)CCOc3ccccc3)C2)cc1 (stereo not given)	-5.0	1.3	1.6	-1.6	9.1	3.9	-0.4	15.4
Nc1cc(N)nc(SCC(=O)Nc2ccc3c(c2)OCCCO3)n1	-10.7	0.9	9.3	1.2	?	-3.3	0.8	-9.2
CCOc1ccc(N2C(=O)C3C4C=CC(CC4)C3C2=O)c([N+](=O)[O-])c1 (stereo not given)	2.5	2.6	-3.0	3.8	19.8*	-0.1	0.4	6.4
CCN1CCCC1CN(Cc1cc2ccc(C)c(C)c2[nH]c1=O)C(=O)Nc1ccccc1OC (stereo not given)	22.9	-2.5	10.9	-4.3	-1.7	-1.7	0.1	12.3

Molecules above that contain a CF3 group, in the order listed:
structure	T cruzi inh	UCH37 inh	B2AR ag	LANA-H2B inh	RanGTP-Impb inh	Beta cell apopt	A1 inh	Calb FLC
O=C(Cc1csc(-c2ccccc2)n1)Nc1ccc(C(F)(F)F)cc1	-9.2	4.2	8.7	-0.7	-1.1	0.9	0.0	-8.7
FC(F)(F)c1cccc(Oc2cc(C(F)(F)F)nc(-c3ccccn3)n2)c1	4.2	0.6	-5.2	2.8	2.3	1.1	-0.9	15.4
O=C(CS(=O)(=O)Cc1ccccc1)Nc1nnc(C(F)(F)F)s1	2.7	0.0	2.2	2.4	1.3	-7.7	0.3	-13.2

Screening data (PubChem)
